Bioassay records as filed in PubChem.
Sfp inh: qHTS Assay for Inhibitors of Bacillus subtilis Sfp phosphopantetheinyl transferase (PPTase). 4'-phosphopantetheinyl transferase ffp (Bacillus subtilis), Q9F4F7. Biochemical Sfp PPTase activity, qHTS. Potency, µM, without a hit: max response, negative = inhibition, most hits filed as inhibitors. 310,000 tested, 3.5% active. AID 1490, 2009; active = well fitted inhibition curve with a large enough effect; inconclusive = small, poorly fitted or top-dose-only effect, or another doubt; inactive = no such curve, though single readings can be large or run the other way;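 note: the enzyme is Sfp with the accession as filed and its product quenches rhodamine fluorescence; potency is the fitted concentration of half-maximal effect; 0% = enzyme reaction without inhibitor and -100% = no enzyme wells; top concentration of the series not given in the record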
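Fluorescence-quenching assay with 15 nM Sfp, 5 uM rhodamine-CoA and 12.5 uM BHQ-2-labelled ybbR peptide in pH 7.6 Hepes/MgCl2 buffer. Enzyme was pre-incubated with compound for 15 min at room temperature. Rate was taken from the 30-min fluorescence change (525/598 nm).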
PINK1 expr mod: A Quantitative High throughput Screen to Identify Chemical Modulators of PINK1 Expression. PINK1 immunofluorescence, high-content cytometry, 24 h. Potency, µM (series often up to 76.6 µM), without a hit: top-dose activation (PINK1 increase), most hits filed as activators. 410,000 tested, 0.2% active; active = well fitted activation curve with a large enough effect; inconclusive = small, poorly fitted or top-dose-only effect; inactive = flat fitted curve, though single readings scatter; cell line not stated here;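 note: potency is the fitted concentration of half-maximal effect; % of control where 0% means no effect; nearly all actives have a fitted effect of over 65% in size; a mitochondrial uncoupler was the plate control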
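A stable cell line was treated with compounds at 5 concentrations for 24 hours, with CCCP as control. PINK1 levels and mitochondrial localization were measured by immunofluorescence with mitochondrial, cell and nuclear markers after fixation, read by laser-scanning cytometry.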
Menin-MLL FL inh: qHTS Assay for Inhibitors Targeting the Menin-MLL Interaction in MLL Related Leukemias: Competition With Fluorescein Labeled MLL-derived Peptide; Fluorescence polarization, fluorescein-MLL peptide displacement from menin; FP activity change, % at 61.4 µM; 290,000 tested, under 10 active; inconclusive = falling polarisation curve, or a change in total fluorescence; inactive = total fluorescence flat and polarisation flat or rising; no compound was filed as active; the % refers to the polarisation; negative = inhibition;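 note: % of control where 0% means no effect; inhibitors lower the polarisation; unlabelled MLL peptide was the positive control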
TRPML1 blocker: qHTS for Inhibitors of the Human Mucolipin Transient Receptor Potential 1 (TRPML1) | TRPML1-inducible cells, Ca2+ dye fluorescence, FDSS; active compounds read low; inhibition of EC80 agonist-evoked calcium signal | Mucolipin-1 (Homo sapiens), Q9GZU1 | AID 624415, 2012 | activity change, negative = inhibition, % (test concentration not listed) | 390,000 tested, 0.02% active; in the data active means activity change below about -50%; inconclusive means about -30% to -50%; inactive means above about -30%;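 note: stimulus is agonist 54-4 at its EC80 concentration; % is set by controls: 0 for no effect and ±100 for the full control effect; compound concentration not given in the record; the text of the record puts the active cut at -80%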
Target sequence (Q9GZU1 whole entry, looked up): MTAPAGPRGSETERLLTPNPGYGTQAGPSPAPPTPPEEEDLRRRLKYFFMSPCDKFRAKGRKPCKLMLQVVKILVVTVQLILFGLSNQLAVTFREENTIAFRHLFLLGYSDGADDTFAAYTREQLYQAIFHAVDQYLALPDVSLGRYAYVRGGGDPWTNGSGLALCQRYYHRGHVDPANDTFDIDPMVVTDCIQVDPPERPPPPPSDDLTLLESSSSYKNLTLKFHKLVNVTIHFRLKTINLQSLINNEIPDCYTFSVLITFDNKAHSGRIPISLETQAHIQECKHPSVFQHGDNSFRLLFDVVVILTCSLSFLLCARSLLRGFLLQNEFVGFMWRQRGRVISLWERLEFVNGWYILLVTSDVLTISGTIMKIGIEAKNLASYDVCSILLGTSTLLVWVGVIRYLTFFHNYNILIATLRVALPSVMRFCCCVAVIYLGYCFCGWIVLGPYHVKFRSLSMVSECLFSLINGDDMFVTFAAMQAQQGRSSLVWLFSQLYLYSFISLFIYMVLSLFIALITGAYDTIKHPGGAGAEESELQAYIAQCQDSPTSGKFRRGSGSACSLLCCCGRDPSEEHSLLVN
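Tet-induced TRPML1-DL cells loaded with Ca8 no-wash calcium dye were read kinetically on FDSS. Compound addition was followed by EC80 agonist 54-4 (4 uM final); inhibition was read over 110 s.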
TRPML1 agonist: qHTS for Agonists of the Human Mucolipin Transient Receptor Potential 1 (TRPML1); TRPML1-expressing cells, Ca2+ dye fluorescence, FDSS; host cell line not named in the record; reference of the full effect not given here; 410,000 tested, 0.12% active; activation, % (concentration not given with the values); Mucolipin-1 (Homo sapiens), Q9GZU1; AID 624414, 2012; in the data active = activation above about 50%; inconclusive = about 30% to 50%; inactive = below about 30%; note: 0% is about no effect; the text of the record puts the active cut at 80%
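Kinetic FDSS Ca2+ read in Tet-induced TRPML1-DL cells (ABD Ca8 dye plus quencher, 45-90 min RT loading): baseline, then compound, then 110 s agonist window; EC80 agonist 54-4 at 4uM final added afterwards for a 110 s antagonist window.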
TRPV1 potentiator: HTS Assay for Compounds that Act as Potentiators of the Vanilloid Receptor 1 | Transient receptor potential cation channel subfamily V member 1 (Homo sapiens), Q8NER1 | TRPV1-expressing cells, Fluo-8 calcium influx, capsaicin EC20 potentiation; host cell line not named in the record; control for the full effect not named in the record | potentiation, % at 8.33 µM | 320,000 tested, 0.02% active; active means potentiation above 80%; inconclusive means 30% to 80%; inactive means below 30%; note: 0% is about no effect
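Cells expressing TRPV1 were dye-loaded with Fluo-8 and read kinetically: 10 s baseline, 3 min after compound (agonist portion), then 2 min after EC20 capsaicin (allosteric enhancer portion). Calcium-bound dye fluorescence at 480/520 nm.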
ClpP mod: qHTS Assay for Activators of ClpP. purified B. subtilis ClpP, FRET peptide cleavage, 20 min. Potency, µM (titrated, usually from 57.5 µM), without a hit: at the top dose activity change, negative = active. ATP-dependent Clp protease proteolytic subunit (Bacillus subtilis (strain 168)), P80244. 340,000 tested, 1.9% active; active = well fitted falling curve with a large enough effect; inconclusive = small, poorly fitted or top-dose-only effect; inactive = no such curve, though single readings can be large or run the other way; note: potency is the fitted concentration of half-maximal effect; the source files actives as falling curves though it sought activators and does not explain the sign; nearly all actives have a fitted effect of over 65% in size; many hits overshoot -100%
Target sequence (P80244 whole entry, looked up): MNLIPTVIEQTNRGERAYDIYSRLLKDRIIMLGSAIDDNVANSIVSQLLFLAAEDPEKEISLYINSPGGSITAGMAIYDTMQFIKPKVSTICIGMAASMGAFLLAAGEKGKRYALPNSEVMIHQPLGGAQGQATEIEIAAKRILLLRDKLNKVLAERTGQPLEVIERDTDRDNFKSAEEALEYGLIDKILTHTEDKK
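ClpP 10 microg/mL final, pH 8 Tris/KCl buffer with BSA, glycerol, Tween-20; compound pinned in; FRET-FV substrate; RT 20 min; Ex320/Em430; ΔFRET vs ADEP 5.8 microM, DMSO, no enzyme.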
Starred values were filed as active, the others as inactive; ? = inconclusive; . = not tested or not shown; & = joins results of further samples; [ ] = dose if it differs, or a comment.

Sequence of screens – Sfp inh | PINK1 expr mod | Menin-MLL FL inh | TRPML1 blocker | TRPML1 agonist | TRPV1 potentiator | ClpP mod
O=c1oc2ccc(Br)cc2cc1-c1csc(-c2ccc(Cl)cc2)n1
    . | 0.1% | . | 16 | -0.2 | . | 0.1%
Cc1ccc(S(=O)(=O)N2CCOCC2)cc1NC(=O)COC(=O)C1CCC1
    . | 0.4% | . | -5 | -1.2 | . | -1.6%
COc1ccc(OC)c(CCNC(=O)c2ccc3c(c2)N(Cc2ccccc2)CCS3)c1
    11% | 2.5%&3.7% | . | -4&47 | 0.2&0.5 | -6 | 3.6%&4.3%
COc1ccc(NC(=O)Cc2ccsc2)cc1S(=O)(=O)N1CCOCC1
    . | -0.2% | . | 19 | -0.7 | -7 | 2.4%
CCNc1nc(SC)nc(N(C#N)CC(=O)OC)n1
    5% | 0.0%[38.3 µM] | 3.7 | -19 | -0.1 | 0 | 0.8%
Cc1ccccc1NC(=S)NCc1ccc(Cl)cc1
    11% | -0.4% | 2.1 | -17 | 3.2 | 7 | 1.2%
Cc1cccc(OCC(=O)N/N=C/c2cc([N+](=O)[O-])ccc2N2CCOCC2)c1
    -24% | 7.1% | 8.2 | 4 | -0.2 | -5 | 1.1%
O=C(NNS(=O)(=O)c1ccccc1)c1ccc(O)cc1
    1% | ? | 1.3 | -17 | -0.2 | 3 | -1.5%
COc1cccc(CNC(=O)Cn2c(SCC(=O)Nc3ccc(C)c(C)c3)nc3ccccc32)c1
    . | 1.8% | . | 7 | 1.1 | . | 0.0%
C=CCNC(=O)c1ccc(C)cc1Cl
    7% | 1.5% | 1.1 | -8 | -0.9 | 2 | 2.9%
COC(=O)c1ccc(COC(=O)c2ccccn2)cc1
    11% | 0.2% | 1.9 | 6 | -0.6 | 1 | 0.6%
O=C(O)/C(=C\c1cccc(OCc2ccccc2)c1)c1ccc(F)cc1
    0% | -0.8% | -1.1 | 3 | 0.6 | 29 | 4.0%
O=C(CCSc1ccccc1Cl)Nc1cccc([N+](=O)[O-])c1
    1% | 2.7% | 6.0 | -14 | 1.5 | -12 | .
CCOc1cc(/C=N\NC(=O)CC(=O)NCCc2ccccc2)ccc1O
    25% | -0.2% | -0.2 | 12 | -0.1 | 3 | .
CCC(=O)N1CCc2cc(S(=O)(=O)CCC(=O)Nc3ccc(C(C)=O)cc3)ccc21
    11% | 0.4% | . | 25 | 1.3 | 23 | .
O=C(OCc1c(-c2ccccc2)ncc2ccccc12)c1ccccc1C(F)(F)F
    . | 0.1% | . | 1 | 2.3 | . | -26%
N#Cc1ccc(-c2ccc(OCC(=O)Nc3cccnc3)cc2)cc1
    7% | 0.4% | . | -17 | 1.0 | 16 | 16µM*
Fc1ccc(NC(=S)N2CCc3ccccc3C2)c(F)c1
    7% | -2.1% | -2.0 | 6 | 0.0 | -15 | .
CCc1ccc2oc(-c3cccc(NC(=O)c4ccc(-c5cccc([N+](=O)[O-])c5)o4)c3)nc2c1
    . | -1.5% | . | -10 | 1.9 | . | -2.7%
O=C(NCc1ccccc1)c1ccc(NC(=O)C2CCCO2)cc1 (configuration not stated)
    18% | 0.9% | . | -7 | 0.7 | 7 | 1.1%

Part of the list above with just TRPV1 potentiator, TRPML1 blocker and ClpP mod:
| SMILES | TRPV1 potentiator | TRPML1 blocker | ClpP mod |
| --- | --- | --- | --- |
| O=c1oc2ccc(Br)cc2cc1-c1csc(-c2ccc(Cl)cc2)n1 | . | 16 | 0.1% |
| O=C(CCSc1ccccc1Cl)Nc1cccc([N+](=O)[O-])c1 | -12 | -14 | . |
| O=C(NNS(=O)(=O)c1ccccc1)c1ccc(O)cc1 | 3 | -17 | -1.5% |
| Cc1cccc(OCC(=O)N/N=C/c2cc([N+](=O)[O-])ccc2N2CCOCC2)c1 | -5 | 4 | 1.1% |

Additional results follow.
Sequence of screens – Sfp inh | PINK1 expr mod | Menin-MLL FL inh | TRPML1 blocker | TRPML1 agonist | TRPV1 potentiator | ClpP mod
O=C(O)CSc1ncccn1
    ? | 1.7% | 5.3 | 9 | -0.4 | -9 | .
COc1ccc(CNC(=O)C[C@H]2C[C@H](C(=O)N(C(C)C)C(C)C)[C@@]3(C)c4[nH]c5ccc(Cl)cc5c4CCN3C2=O)cc1OC
    . | ? | . | -6 | -0.3 | . | 0.1%
Cc1ccc(N2C(=O)N(Cc3cccc(Cl)c3)c3ccccc3S2(=O)=O)cc1
    . | 1.5% | . | -6 | 1.7 | . | -1.6%
CCOc1ccc(OCCCCNCCN)cc1
    -2% | . | 3.2 | . | . | -2 | .
CCOC(=O)c1cc(CC)sc1NC(=O)Cc1ccsc1
    -8% | -0.1% | -2.1 | -2 | 0.5 | 0 | -25%
COC(C/C=C/[C@H](O)[C@H](C)OCc1ccccc1)OC
    . | -0.8% | . | -15 | 0.7 | . | 2.6%
CC(C)[C@H](NC(=O)N1CC(=O)Nc2ccccc21)C(=O)N1CCC[C@@H]1C(=O)O
    16% | 0.7% | 1.3 | . | . | -9 | 0.5%
CC(C)(C)OC(=O)C(Cc1ccc(OC(C)(C)C)cc1)NC(=O)CNC(=O)OCc1ccccc1 (configuration not stated)
    9% | ? | -0.5 | -2 | 0.9 | -18 | -9.7%
CC(C(=O)NC1C=CS(=O)(=O)C1)N1C(=O)/C(=C\c2ccccc2)SC1=S (configuration not stated)
    13µM* | -1.8% | 5.0 | -2 | -1.3 | 21 | 1.1%
CCOC(=O)CCNC(=O)N1CCCC(CNS(=O)(=O)c2cccs2)C1 (configuration not stated)
    -6% | -1.7% | 0.4 | 10 | -0.2 | -5 | -1.0%
Cc1c(C(=O)Nc2ccccc2Br)oc2ccc(S(=O)(=O)N3CCCCCC3)cc12
    . | 0.9% | . | -7 | 0.2 | . | 3.6%
COc1cc(/C=C(\NC(=O)c2ccccc2)C(=O)Nc2nccs2)ccc1OC(C)=O
    0% | 3.7% | 3.9 | -11 | 0.1 | 2 | -4.0%
O=C(Nc1ccccc1-c1nnn(CC(=O)N2CCCc3ccccc32)n1)c1ccc(Cl)cc1
    -5% | 1.2% | 5.2 | 26 | -0.2 | -4 | 0.9%
COc1ccc(CN(Cc2cc3ccc(C)cc3[nH]c2=O)Cc2nnnn2C2CCCC2)cc1
    -15% | ? | 0.1 | 1 | 0.1 | -13 | -1.6%
Cc1c(Cl)cccc1NS(=O)(=O)c1c(C(=O)N2CCOCC2)c(C)n(C)c1C
    11% | 0.7% | -2.6 | -10 | -0.6 | -7 | -0.2%
Cc1cccc(N2CCN(S(=O)(=O)c3cc(C(=O)Nc4ccccc4Cl)ccc3F)CC2)c1C
    . | 0.1% | . | 8 | 2.3 | . | -2.7%
COc1ccc(C(=O)N2CC(=O)Nc3ccc(C)cc3C2c2ccc(F)cc2)c(OC)c1 (configuration not stated)
    . | -0.5% | . | 1 | 1.7 | . | 2.2%
O=c1c2oc3ccccc3c2n(Cc2cccc(F)c2)c(=O)n1Cc1ccc2c(c1)OCO2
    . | 1.7% | . | 16 | 0.1 | . | -12%
COc1ccc(C(CC(=O)O)NC(=O)c2cc3ccccc3oc2=O)cc1OC (configuration not stated)
    . | 0.0% | . | 11 | 4.2 | . | -0.9%
COc1ccc(N2C(=O)C(CC(=O)O)S/C2=C\C(C)=O)cc1 (configuration not stated)
    -22% | 0.7% | -0.8 | -2 | -0.5 | 9 | 1.7%
CCOc1ccc(NC(=O)c2ccc(F)c(S(=O)(=O)N(Cc3ccc(C(=O)OC)cc3)Cc3ccc(OC)c(OC)c3)c2)cc1
    . | 1.1% | . | -10 | 0.6 | . | -8.6%
COc1cccc(N(CC(=O)N2CCOCC2)S(C)(=O)=O)c1
    21% | 1.7% | 10 | 11 | -0.1 | 12 | -2.0%
COc1ccc(Cc2nnc(SCC(=O)Nc3nc(C)cs3)o2)cc1
    6% | 6.0%[38.3 µM] | -1.6 | 8 | 1.0 | 5 | 0.5%
O=C(COC(=O)CNC(=O)c1ccco1)NCc1ccc(F)cc1
    -30% | 0.3% | -2.7 | -3 | 0.0 | 6 | .
CC(C)CCNC(=O)c1onc(CSc2ccc(Cl)cc2)c1C(=O)NCCC(C)C
    14% | 6.0% | 1.2 | -4 | 1.3 | 17 | -6.0%
COC(=O)C1CCN(C(=O)COC(=O)CCc2nc3ccccc3c(=O)[nH]2)CC1
    28% | 1.0% | . | 6 | -0.1 | -24 | -1.4%
O=c1[nH][nH]c2nc(C(F)(F)F)cc(C(F)(F)F)c12
    14% | -1.8%[38.3 µM] | -2.0 | -4 | -0.2 | 1 | -3.6%
COc1cc(C)ccc1OCCOCCOc1ccccc1[N+](=O)[O-]
    -1% | 1.3% | 2.6 | -2 | -0.7 | 5 | 2.4%
CSc1ccc(CNC(=O)Cn2nc(C)c3c(C)n(-c4ccc(C)cc4)nc3c2=O)cc1
    12% | 8.2% | -0.6 | 12 | 0.9 | 1 | -1.6%
CCOC(Cn1cc([N+](=O)[O-])c(=O)[nH]c1=O)OCC
    . | -2.0% | . | 27 | 1.1 | . | .
COc1ccc(C2(C)NC(=O)N(CC(=O)N(c3ccccc3)C3CCS(=O)(=O)C3)C2=O)cc1 (configuration not stated)
    . | -0.7% | . | 4 | 0.7 | . | .
